Screening results: PubChem, several laboratories
RGS16-Gao HTS – RGS16-Galphao interaction regulator (human) | O15492+P09471 | bead-based flow cytometry RGS16-Galphao binding, fluorescence; actives lie on both sides | binding response (% of control), % at 10 µM | 0.38% of 220,000 active | AID 1441;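 active = below 25% or above 175%, edge rows of some plates excepted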;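 note: Galphao activated by GDP with aluminum fluoride before binding; 100% = wells without compound and 0% = beads without RGS; some results beyond the cut were filed as inactive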
Target sequence (O15492 whole entry, looked up): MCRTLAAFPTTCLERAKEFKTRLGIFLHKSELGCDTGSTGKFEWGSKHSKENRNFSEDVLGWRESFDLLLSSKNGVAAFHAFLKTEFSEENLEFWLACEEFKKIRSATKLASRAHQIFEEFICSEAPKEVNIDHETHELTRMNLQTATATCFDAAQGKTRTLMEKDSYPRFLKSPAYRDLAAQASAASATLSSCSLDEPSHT
Target sequence (P09471 whole entry, looked up): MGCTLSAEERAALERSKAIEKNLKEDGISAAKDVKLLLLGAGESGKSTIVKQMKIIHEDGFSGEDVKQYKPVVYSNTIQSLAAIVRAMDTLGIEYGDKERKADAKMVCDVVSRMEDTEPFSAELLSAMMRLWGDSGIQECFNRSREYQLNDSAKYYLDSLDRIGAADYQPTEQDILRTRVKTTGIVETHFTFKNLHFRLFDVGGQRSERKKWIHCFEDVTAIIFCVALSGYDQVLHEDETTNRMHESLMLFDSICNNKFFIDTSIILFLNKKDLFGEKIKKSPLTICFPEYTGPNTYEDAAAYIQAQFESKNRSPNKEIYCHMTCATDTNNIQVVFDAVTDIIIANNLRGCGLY
HSV augment – HSV replication enhancement; HSV replication augmentation in cells, fold increase; maximum fold increase; 0.005% of 220,000 active;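 active = peak rise of 1.5-fold or more in the series; tested in PC3 cells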;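 note: first round at 10 µM; read as green reporter fluorescence; hits show the peak of a series up to 25 µM; 1 = signal of infected wells without compound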
GALR2 ag – agonists of human galanin receptor 2 (GALR2). GALR2-expressing cells, agonist activation read-out. activation, %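 (tested at 5 µM)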. 0.48% of 140,000 active;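 active = above mean plus 3 SD of all compounds, about 5% in these data, not always enough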;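 note: 0% = vehicle buffer wells and 100% = reference agonist at full effect; tested in CHO reporter cells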
Target sequence (O43603 whole entry, looked up): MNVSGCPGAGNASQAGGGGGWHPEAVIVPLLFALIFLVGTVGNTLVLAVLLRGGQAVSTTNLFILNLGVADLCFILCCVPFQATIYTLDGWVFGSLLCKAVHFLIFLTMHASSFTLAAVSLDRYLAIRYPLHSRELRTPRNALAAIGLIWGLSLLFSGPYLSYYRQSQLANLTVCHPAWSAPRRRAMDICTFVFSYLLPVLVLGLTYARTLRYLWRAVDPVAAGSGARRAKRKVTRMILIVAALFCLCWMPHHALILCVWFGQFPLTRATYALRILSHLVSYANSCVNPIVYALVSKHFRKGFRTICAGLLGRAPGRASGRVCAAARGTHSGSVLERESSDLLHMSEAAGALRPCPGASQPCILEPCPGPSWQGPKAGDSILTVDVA
INS promoter inh – TRM-6 insulin promoter activity inhibition; TRM-6 cells (human fetal islet line), insulin promoter-eGFP reporter, imaging; reporter expression induced with tamoxifen; inhibition, % at 2 µM; 0.9% of 130,000 active;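 active = inhibition above the mean plus 3 SD, with well images judged a real hit on visual review, cut at about 60% in these data, passing the limit was not always enough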
PKD1 kinase inh – blocks activity of human protein kinase D1. Q15139. PKD1 kinase fluorescence polarization assay. inhibition, %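 (about 10 µM by stock and volumes)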. 0.056% of 200,000 active. AID 797;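 active = inhibition of 50% or more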;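 note: controls were vehicle for no effect and a reference inhibitor for full effect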
INS promoter inh cell count – also measured in INS promoter inh; calls as there; normalized cell count, %; measured here: cell count, toxicity; reference of the scale not given here;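 cells exposed to compound for 48 h; stained nuclei by imaging scaled within each plate; lower means fewer cells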
HSV augment primary fold – further read-out of HSV augment, marked with its call; fold increase; compound at 10 µM; measured here: primary screen fold increase 10 uM; tested in PC3 cells;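 GFP signal in the first replicate; 1 = infected wells without compound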
* hit, by the source's call; i = inactive; . = not tested or not shown.

canonical_smiles	RGS16-Gao HTS	HSV augment	HSV augment primary fold	GALR2 ag	INS promoter inh	INS promoter inh cell count	PKD1 kinase inh
Cn1nc(-c2ccc(Cl)cc2)cc1NC(=O)CSCC(=O)O	99	i	1.1	.	.	.	.
S=C(Nc1ccc(N2CCOCC2)cc1)Nc1ccc2nc(-c3ccco3)c(-c3ccco3)nc2c1	82	.	.	1.0	-19	110	-2
COc1cc(/C=C(\NC(C)=O)C(=O)O)cc(OC)c1OC	104	i	1.1	.	.	.	.
CCCCn1nnnc1NCc1ccc(N(CC)CC)cc1	97	i	1	-1.2	30	105	1
Cc1c(C(=O)Nc2ccc3c(c2)OCO3)sc2nc(-c3ccccc3)cn12	100	i	0.72	-3.2	70	68	-5
COCCN1C(=O)CS/C1=C(/C#N)C(=O)NCc1ccco1	90	i	0.77	.	.	.	5
CCCCCn1ccc(=N)cc1	70	i	1.3	-0.2	0	61	7
CCOCC(=O)Nc1ccc(S(=O)(=O)Nc2ncccn2)cc1	91	i	1	-0.6	-317	75	-7
c1ccc2nc3c(nc2c1)[nH]c1ccccc13	99	i	0.89	-0.8	-300	38	-3
Cc1ccc(CNC(=O)CCS(=O)(=O)c2cccc3nonc23)cc1	107	i	0.98	-2.2	.	.	5
O=C(O)c1ccc(-c2ccc(O)c(F)c2)cc1	101	i	1	-0.6	.	.	2
Cc1c(C(=O)O)cccc1-n1c(C)cc(/C=C(/C#N)C(=O)NCc2ccccc2)c1C	96	i	0.84	.	41	75	-9
CCOC(=O)/C(C#N)=C/N1CCOCC1	92	i	0.96	.	.	.	.
CSc1cccc(NC(=O)c2c(Cl)cnn2C)c1	99	i	0.92	0.5	45	129	0
CCNc1c([N+](=O)[O-])c(=O)oc2ccccc12	103	i	0.92	.	48	62	0
Cc1cccc(NS(=O)(=O)c2cccc3nsnc23)c1	100	i	1	0.4	0	276	-2
Cc1nc2ccccc2c(=O)n1/N=C/c1ccc(N(C)C)cc1	109	i	1.1	-2.3	.	.	4
CCOC(=O)CSc1nc(N)c(C#N)c(-c2ccc(OCC)cc2)c1C#N	100	i	1.2	0.7	.	.	13
Cc1nn(Cc2ccccc2)c(C)c1NC(=O)CSc1nnc(-c2cc(Cl)ccc2O)n1C	75	i	0.89	-0.9	-35	149	3
COC(=O)c1cc(C)sc1NC(=O)C1CC(=O)NN1Cc1ccccc1 (configuration not stated)	98	i	0.96	0.0	.	.	1
CCC/C(O)=C1\C(=O)CC(C)(C)CC1=NCc1ccccc1	95	i	1.1	.	.	.	.
CC12CCC(=O)N1C(C(=O)OCC(=O)Nc1sccc1C#N)CS2 (configuration not stated)	105	i	1.1	0.0	.	.	-3
COC(=O)CSc1snnc1-c1ccc(Cl)c(Cl)c1	84	i	0.92	-2.7	-23	97	6
COc1cc(NC(=S)N2CCN(c3ccccn3)CC2)cc(OC)c1	100	i	0.94	-0.4	.	.	8
CN1CCN(/C=N/c2c(C#N)cnn2-c2ccccc2)CC1	106	i	0.9	-0.6	-13	85	-6

An excerpt of these results, as labelled records.
> CC12CCC(=O)N1C(C(=O)OCC(=O)Nc1sccc1C#N)CS2 (configuration not stated)
  RGS16-Gao HTS: 105
  HSV augment: i
  HSV augment primary fold: 1.1
  GALR2 ag: 0.0
  INS promoter inh: .
  INS promoter inh cell count: .
  PKD1 kinase inh: -3
> COC(=O)CSc1snnc1-c1ccc(Cl)c(Cl)c1
  RGS16-Gao HTS: 84
  HSV augment: i
  HSV augment primary fold: 0.92
  GALR2 ag: -2.7
  INS promoter inh: -23
  INS promoter inh cell count: 97
  PKD1 kinase inh: 6
> COc1cc(NC(=S)N2CCN(c3ccccn3)CC2)cc(OC)c1
  RGS16-Gao HTS: 100
  HSV augment: i
  HSV augment primary fold: 0.94
  GALR2 ag: -0.4
  INS promoter inh: .
  INS promoter inh cell count: .
  PKD1 kinase inh: 8
> CN1CCN(/C=N/c2c(C#N)cnn2-c2ccccc2)CC1
  RGS16-Gao HTS: 106
  HSV augment: i
  HSV augment primary fold: 0.9
  GALR2 ag: -0.6
  INS promoter inh: -13
  INS promoter inh cell count: 85
  PKD1 kinase inh: -6

New compounds follow.
canonical_smiles	RGS16-Gao HTS	HSV augment	HSV augment primary fold	GALR2 ag	INS promoter inh	INS promoter inh cell count	PKD1 kinase inh
COCc1ccc([C@@H]2C[C@H]3CN(Cc4cccc(Cl)c4)C(=O)[C@]34CCCN24)o1	99	i	0.95	.	.	.	3
COC(=O)C1CC(Cl)CN1c1ncc(C(F)(F)F)cc1Cl (configuration not stated)	111	i	1	.	45	114	1
O=C1CSC(=S)N1N=C1CCCCCC1	94	i	1.1	-0.4	-11	77	4
COc1cc(NC(=S)Nc2ccccn2)c(OC)cc1Cl	101	i	0.88	.	.	.	-3
CCN(CC)c1c2c(c(C#N)c3nc4ccccc4n13)CCC2	100	i	0.96	0.8	5	119	-12
COc1ccc(C(=O)NC(C(=O)NCc2ccccc2OC)C(C)C)cc1 (configuration not stated)	100	i	0.94	.	-42	121	0
CCOC(=O)Cc1csc(NC(=O)c2ccc(C)cc2)n1	105	i	0.94	.	24	107	-10
CCn1nc(C)c(NC(=O)c2cc(Br)ccc2Cl)c1C	104	i	0.99	-1.1	0	120	-15
Cc1ccc(C2CC2c2n[nH]c(=S)n2-c2cccc(Cl)c2)cc1 (configuration not stated)	96	i	0.95	-0.7	24	80	-5
c1ccc2c(c1)ncn2CCC1CCCCC1	101	i	0.83	-2.3	24	99	-10
O=[N+]([O-])c1ccc(COc2cccc(CNc3ccc(Br)cc3)c2)cc1	106	i	1.1	-0.2	.	.	-4
COc1ccc(CCN(C)C(=O)CN2C(=O)c3ccccc3S2(=O)=O)cc1OC	104	i	0.92	-1.3	-14	27	3
CCOC(=O)N1CCC(NC(=O)CS(=O)(=O)Cc2nc(-c3cccc(OC)c3)oc2C)CC1	90	i	0.88	-0.7	23	89	-9
CS(=O)(=O)N(CC(=O)N1CCc2ccccc2C1)Cc1ccc(Cl)cc1	102	i	0.85	-2.2	-38	116	-3
CCN1CCN(/C=N/c2nc3c(s2)CCCC3)CC1	150	i	1	-1.5	.	.	-15
COc1cc(-c2n[nH]c(=S)n2-c2cccc(C(F)(F)F)c2)cc(OC)c1OC	99	i	0.91	-0.9	-7	103	-5
Cc1nc2ccc(NC(=O)N3CCSCC3)cc2s1	97	i	1	1.4	-34	142	-4
CC(=NCc1cccc(Cl)c1)c1nc(-c2ccco2)oc1O	101	i	0.98	-0.7	-129	46	-19
CCN1C(=O)CSc2ccc(C(=O)NCc3ccccc3OC)cc21	102	i	1	-1.6	-3	112	-3
CCCCc1nc(NCCN2CCOCC2)c(C#N)c2c1COC(C)(C)C2	97	i	0.9	-2.4	9	105	-7
CC1CCN(C(=O)c2ccc(NC(=O)C3CCCO3)cc2)CC1 (configuration not stated)	103	i	0.92	-2.0	.	.	4
Clc1ccccc1C1=Nn2c(nnc2-c2ccco2)SC1	88	i	0.96	.	.	.	.
CCC(=O)NC(=S)Nc1ccc(NC(=O)c2ccco2)cc1	118	i	1.1	.	.	.	-1
CCN1C(=O)C(O)(CC(=O)c2c(C)coc2C)c2ccccc21 (configuration not stated)	90	i	0.97	.	.	.	2
CCOC(=O)CC(=O)Nc1ccc(C(=O)OCC)cc1	97	i	0.91	-1.3	-36	125	-5

Two of the compounds above, with each value named.
CCN(CC)c1c2c(c(C#N)c3nc4ccccc4n13)CCC2
  RGS16-Gao HTS: 100
  HSV augment: i
  HSV augment primary fold: 0.96
  GALR2 ag: 0.8
  INS promoter inh: 5
  INS promoter inh cell count: 119
  PKD1 kinase inh: -12

COc1ccc(C(=O)NC(C(=O)NCc2ccccc2OC)C(C)C)cc1 (configuration not stated)
  RGS16-Gao HTS: 100
  HSV augment: i
  HSV augment primary fold: 0.94
  GALR2 ag: .
  INS promoter inh: -42
  INS promoter inh cell count: 121
  PKD1 kinase inh: 0

Single records, from the list above. Order of values: RGS16-Gao HTS, HSV augment, HSV augment primary fold, GALR2 ag, INS promoter inh, INS promoter inh cell count, PKD1 kinase inh
CCC(=O)NC(=S)Nc1ccc(NC(=O)c2ccco2)cc1 across the screens: 118, i, 1.1, ., ., ., -1
Clc1ccccc1C1=Nn2c(nnc2-c2ccco2)SC1 across the screens: 88, i, 0.96, ., ., ., .

(next part)
canonical_smiles	RGS16-Gao HTS	HSV augment	HSV augment primary fold	GALR2 ag	INS promoter inh	INS promoter inh cell count	PKD1 kinase inh
Cc1cc(OCCOc2cccc3cccnc23)cc(C)c1Cl	93	i	0.9	-1.2	-41	136	3
Cc1nc2sc(C(c3ccccc3)N3CCN(C)CC3)c(O)n2n1 (configuration not stated)	102	i	0.98	.	.	.	.
COc1ccc(Cl)cc1C(=O)N1CCN(c2ccccn2)CC1	106	i	0.97	-0.6	-11	91	7
Cc1ccc(N=C2NC(=O)CS2)cc1	103	i	0.89	-0.8	6	106	-5
Cc1cccc(C)c1NC(=O)C1c2cccc[n+]2CC(=O)N1Cc1ccc2c(c1)OCO2 (configuration not stated)	117	i	1.1	.	36	78	0
Cc1ccc(C)c(C2=CSC3=NS(=O)(=O)CCN23)c1	99	i	0.9	-1.4	11	162	3
CC(C)COP(=O)(c1ccc(N(C)C)cc1)C(O)c1ccccc1F (configuration not stated)	102	i	0.84	-1.1	17	117	2
c1ccc(CCn2nnnc2C(c2cccs2)N2CCOCC2)cc1 (configuration not stated)	99	i	0.91	.	.	.	.
COc1ccc2c(c1)c1nc(SCC(C)C)n(CCO)c(=O)c1n2C	59	i	0.97	-1.6	.	.	-2
COC(=O)c1cn(C(=O)c2ccccc2)c2ccccc12	101	i	1.1	.	.	.	-8
Cc1cc2cc(CNC(=O)c3ccc(S(=O)(=O)N4CCCC4)cc3)ccc2n1C	102	i	1.1	-1.6	.	.	-7
Cc1ccccc1N1CCN(C(=S)c2ccc([N+](=O)[O-])cc2)CC1	99	i	0.98	-1.0	-77	91	-7
CC(Sc1nnnn1C)C(=O)Nc1ccccc1-c1ccccc1 (configuration not stated)	103	i	1.2	-2.1	-42	117	3
N#Cc1c(SCC(=O)N2CCOCC2)nsc1SCC(=O)N1CCOCC1	118	i	0.99	-1.8	15	127	2
CCOC(=O)c1cn(Cc2ccc(C)cc2)nn1	106	i	1.1	-1.8	.	.	1
O=C(NC(=S)Nc1ccc(NC(=O)c2ccco2)cc1)c1ccccc1	99	i	0.86	-0.3	2	112	3
CN(CC(=O)Nc1ccc(Cl)cc1)c1ccc(S(=O)(=O)N2CCCCC2)cc1[N+](=O)[O-]	104	i	1.1	-0.8	.	.	13
N/C(=N\S(=O)(=O)c1cccs1)c1ccccc1	106	i	0.93	-2.0	17	76	-3
CC(C)C(=O)NN(C(=O)C(C)C)c1nc2ccccc2s1	111	i	1.2	.	.	.	.
Cc1ccc2c(c1)nnn2C1CCN(C(=O)C23CC4CC(CC(C4)C2)C3)CC1	114	i	0.99	-1.1	-144	122	5
Cc1nn(C(=O)c2c([N+](=O)[O-])cnn2C)c(C)c1Cl	132	i	0.83	-0.2	-39	99	1
Clc1ccc(Nc2c3c(nc4ncnn24)CCC3)cc1	90	i	0.9	.	.	.	.
CCCC(=O)Nc1nc(C)c(-c2csc(Nc3ccccc3OC)n2)s1	102	i	0.79	0.8	4	76	9
Cc1cc(C)cc(-n2cc(C(=O)O)c(=O)cc2C)c1	109	.	.	.	-85	84	-2
Cc1cc(C)n(-c2nc3c(c(=O)[nH]c(=O)n3C)n2C(C)C)n1	99	i	1	-0.8	-10	91	9
CCOC(=O)c1c(C=O)c2ccccc2n1CC	102	i	0.94	.	20	81	-4

Gathered by group: those above with a nitro group on carbon
canonical_smiles	RGS16-Gao HTS	HSV augment	HSV augment primary fold	GALR2 ag	INS promoter inh	INS promoter inh cell count	PKD1 kinase inh
CCNc1c([N+](=O)[O-])c(=O)oc2ccccc12	103	i	0.92	.	48	62	0
O=[N+]([O-])c1ccc(COc2cccc(CNc3ccc(Br)cc3)c2)cc1	106	i	1.1	-0.2	.	.	-4
Cc1ccccc1N1CCN(C(=S)c2ccc([N+](=O)[O-])cc2)CC1	99	i	0.98	-1.0	-77	91	-7
CN(CC(=O)Nc1ccc(Cl)cc1)c1ccc(S(=O)(=O)N2CCCCC2)cc1[N+](=O)[O-]	104	i	1.1	-0.8	.	.	13
Cc1nn(C(=O)c2c([N+](=O)[O-])cnn2C)c(C)c1Cl	132	i	0.83	-0.2	-39	99	1
